Compound activity: PubChem BioAssay, National Center for Advancing Translational Sciences (NCATS)
TDP1 block: qHTS Assay for Inhibitors of Tyrosyl-DNA Phosphodiesterase (TDP1). Potency, µM (series often up to 130 µM), inactives show top-dose activity change, negative = inhibition, hits mostly inhibitors. 350,000 compounds, 0.28% hits. Tyrosyl-DNA phosphodiesterase 1 (Homo sapiens), Q9NUW8. recombinant TDP1, AlphaScreen DNA substrate cleavage; further: nearly all actives have a fitted effect of over 40% in size
Target sequence (Q9NUW8 whole entry, looked up): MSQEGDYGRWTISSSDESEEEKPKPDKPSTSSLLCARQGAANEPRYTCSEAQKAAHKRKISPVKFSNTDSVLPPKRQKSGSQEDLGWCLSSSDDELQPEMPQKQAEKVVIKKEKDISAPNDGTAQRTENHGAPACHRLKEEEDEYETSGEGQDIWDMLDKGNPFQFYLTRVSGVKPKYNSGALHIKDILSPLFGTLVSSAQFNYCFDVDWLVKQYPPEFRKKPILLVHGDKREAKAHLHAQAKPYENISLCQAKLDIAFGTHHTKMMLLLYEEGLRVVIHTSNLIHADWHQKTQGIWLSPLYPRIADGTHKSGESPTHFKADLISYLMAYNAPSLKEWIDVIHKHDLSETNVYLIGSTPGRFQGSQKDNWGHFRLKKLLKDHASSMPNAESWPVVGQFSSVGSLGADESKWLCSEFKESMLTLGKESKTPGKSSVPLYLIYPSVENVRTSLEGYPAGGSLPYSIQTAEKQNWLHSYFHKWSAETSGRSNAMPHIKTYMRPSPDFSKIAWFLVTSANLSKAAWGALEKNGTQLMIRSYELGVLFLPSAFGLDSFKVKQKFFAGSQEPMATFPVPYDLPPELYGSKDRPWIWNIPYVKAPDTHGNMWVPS
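E. coli-derived human Tdp1, 1 nM final. Cpd preinc 15 min RT; substrate 15 nM final, 5 min RT; AS bead mix 10 ug/ml final, 10 min RT. Signal loss = tyrosine-FITC cleavage. No-enzyme wells = max signal.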
FEN1 inhibitor: qHTS Assay for the Inhibitors of Human Flap endonuclease 1 (FEN1) | Recombinant FEN1 flap cleavage, fluorescence, 15 min | 390,000 compounds, 0.35% hits | Potency, µM (top dose mostly 114 µM), inactives show at the top dose activity change, negative = inhibition, most hits filed as inhibitors; further: nearly all actives have a fitted effect of over 65% in size
Target sequence (P39748 whole entry, looked up): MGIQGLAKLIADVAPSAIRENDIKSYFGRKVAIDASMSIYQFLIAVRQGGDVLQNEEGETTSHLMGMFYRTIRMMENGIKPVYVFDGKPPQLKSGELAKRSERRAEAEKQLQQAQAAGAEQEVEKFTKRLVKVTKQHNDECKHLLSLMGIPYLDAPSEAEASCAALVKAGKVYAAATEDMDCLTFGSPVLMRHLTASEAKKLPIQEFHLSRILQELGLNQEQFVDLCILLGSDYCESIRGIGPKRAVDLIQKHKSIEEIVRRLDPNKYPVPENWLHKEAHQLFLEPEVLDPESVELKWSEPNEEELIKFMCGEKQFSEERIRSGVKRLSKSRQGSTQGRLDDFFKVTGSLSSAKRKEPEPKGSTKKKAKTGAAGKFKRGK
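Compounds are tested as a concentration series against 10 nM FEN1; after a 15 min room-temperature preincubation, 50 nM substrate starts cleavage, with plate reads at 0 and 15 min. Normalized responses are fitted by a Hill equation.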
* marks the source's active call; other numbers are inactive results; & = joins results of further samples. The call rests on the fitted dose curve; in most records, active means well fitted inhibition curve with a large enough effect; inconclusive means small, poorly fitted or top-dose-only effect; inactive means no such curve, though single readings can be large or run the other way. On the % scale 0 is the no-effect control and ±100 the full control effect; potency means the concentration at half of the fitted maximal effect.

How did Cc1cc(C)n2nc(/C(C#N)=C/c3ccccn3)c(C#N)c2n1 do in these assays?
TDP1 block: 0.0%; FEN1 inhibitor: -23.1%

What do the screens show for `Cc1cnc(NC(=O)CSc2nnc(N)s2)s1`?
TDP1 block: 1.2%; FEN1 inhibitor: -14.9%

What do the screens show for `Cc1ccc2oc(=O)c3cc(C(=O)NCCCN4CCCC(C)C4)sc3c2c1` (stereo not drawn)?
TDP1 block: 5.9%; FEN1 inhibitor: 1.9%

How did COC(=O)c1ccc(NC(=O)CCN2CCOCC2)cc1 do in these assays?
TDP1 block: 3.3%; FEN1 inhibitor: -8.4%

How did CCOC(=O)c1c(C)[nH]c(C)c1S(=O)(=O)NCc1cc(C)ccc1C do in these assays?
TDP1 block: 3.1%; FEN1 inhibitor: -13.1%

Results for O=c1c2nnn(-c3cccc(F)c3)c2ncn1Cc1ccccn1 ?
TDP1 block: 6.3%; FEN1 inhibitor: -2.2%

Results for COCCC1CCCCN1C(=O)c1cc(COc2cccc(C(C)=O)c2)on1 (stereo not drawn) ?
TDP1 block: 1.4%; FEN1 inhibitor: -9.2%

What do the screens show for `Cc1cc2c(cc(C(=O)OC(C(=O)NCc3ccco3)C(C)C)n2C)o1` (stereo not drawn)?
TDP1 block: 8.0%; FEN1 inhibitor: -6.3%

How did N#Cc1ccccc1S(=O)(=O)N1CCN(S(=O)(=O)c2ccc(Br)c(C(=O)O)c2)CC1 do in these assays?
FEN1 inhibitor: 3.4%

What do the screens show for `c1ccc(Cn2nnc3c(N4CCN(Cc5ccc6c(c5)OCO6)CC4)ncnc32)cc1`?
TDP1 block: 6.8%; FEN1 inhibitor: -17.8%

How did COc1cccc(Nc2ncccc2C(=O)O)c1 do in these assays?
TDP1 block: 7.3%; FEN1 inhibitor: -0.9%

How did COC(=O)c1ccc2c(c1)NC(=O)C(N(CC(C)C)CC(C)C)S2 (stereo not drawn) do in these assays?
FEN1 inhibitor: -0.2%

Results for CCOC(CNC(=O)CN1C(=O)COc2ccc(S(=O)(=O)N3CC(C)CC(C)C3)cc21)OCC (stereo not drawn) ?
FEN1 inhibitor: -16.6%

How did CCOC(=O)NC(=O)COC(=O)CCCc1nc2ccccc2s1 do in these assays?
TDP1 block: 0.0%; FEN1 inhibitor: 0.3%

How did CN(C)CCCN1C(=O)C(=O)/C(=C(/O)c2ccncc2)C1c1ccccc1 (stereo not drawn) do in these assays?
TDP1 block: -2.1%; FEN1 inhibitor: -4.1%

Results for COc1ccccc1N(C)S(=O)(=O)c1ccc(C)c(C(=O)N2CCCCCC2)c1 ?
TDP1 block: -10.2%; FEN1 inhibitor: 2.9%

How did CC(=O)Nc1ccc(/C(C)=N/NC(=O)c2ccccc2Cl)cc1 do in these assays?
TDP1 block: 4.7%; FEN1 inhibitor: -4.3%

Results for O=[N+]([O-])c1ccccc1S(=O)(=O)NC1CC2CCC1C2 (stereo not drawn) ?
TDP1 block: 3.5%; FEN1 inhibitor: 6.1%

Results for Cc1cc(C)c2nc(C)cc(Nc3ccc(C(=O)NCCO)cc3)c2c1 ?
TDP1 block: -2.4%; FEN1 inhibitor: -21.2%

What do the screens show for `COc1ccc(C)cc1NC(=O)CN1C(=O)CSc2ccc(S(=O)(=O)N3CCCC3)cc21`?
TDP1 block: 5.9%&2.6%; FEN1 inhibitor: 0.6%&-13.5%

Results for O=C(O)CN(Cc1ccco1)S(=O)(=O)c1ccc(F)cc1 ?
TDP1 block: 1.0%; FEN1 inhibitor: -4.9%

Results for COc1ccccc1N(Cc1ccccc1)S(=O)(=O)c1cccc(C(=O)Nc2ncccc2C)c1 ?
TDP1 block: -14.0%; FEN1 inhibitor: -1.9%

How did CCc1cccc(CC)c1NC(=O)CSc1nnc(CCC(=O)O)c(=O)[nH]1 do in these assays?
TDP1 block: -4.7%; FEN1 inhibitor: -12.4%

Results for COc1ccc(C(=O)O)cc1S(=O)(=O)N(C)CCc1ccccn1 ?
FEN1 inhibitor: 7.4%

Results for CCOC(=O)N/N=C\c1ccc([N+](=O)[O-])o1 ?
TDP1 block: -2.0%; FEN1 inhibitor: 4.3%

Results for Cc1cccc(NC(=O)/C(=C\c2cccs2)NC(=O)c2ccccc2)c1 ?
TDP1 block: 1.1%; FEN1 inhibitor: -12.9%

How did Cc1cc(NC(=O)CSc2ccc3c(c2)OCCO3)no1 do in these assays?
TDP1 block: -8.3%; FEN1 inhibitor: 5.7%

Results for N#C/C(C(=O)NCc1ccco1)=C1/SC(Cc2ccc(Cl)cc2)C(=O)N1c1ccccc1 (stereo not drawn) ?
TDP1 block: 5.0%; FEN1 inhibitor: -4.4%

How did COC(CNC(=O)C(=O)Nc1ccc2c(c1)N(S(=O)(=O)c1cccs1)CCC2)OC do in these assays?
TDP1 block: 0.2%; FEN1 inhibitor: -9.5%

Results for O=C1CC(SCCO)C(=O)N1c1ccc(Oc2ccccc2)cc1 (stereo not drawn) ?
TDP1 block: 2.6%; FEN1 inhibitor: 16.8%

How did CNC(=O)N(C1=NCC(C)(C)S1)c1ccc(F)c(Cl)c1 do in these assays?
TDP1 block: 1.0%; FEN1 inhibitor: -17.6%

What do the screens show for `CC12CN3CCN(CC(C3)/C1=N/NC(=O)Nc1ccccc1)C2`?
TDP1 block: -1.9%; FEN1 inhibitor: 11.6%

Results for CC1Cc2ccccc2N1C(=O)CSc1nnc(-c2ccc(S(=O)(=O)N3CCCCC3)cc2)o1 (stereo not drawn) ?
TDP1 block: -5.3%

What do the screens show for `Cc1coc2cc3oc(=O)ccc3cc12`?
FEN1 inhibitor: 10.3%

What do the screens show for `Clc1cccc(CN2CCSCC2)c1Cl`?
FEN1 inhibitor: -0.1%

Results for COCCNC(=O)CCCCCNS(=O)(=O)c1ccc(C)cc1 ?
TDP1 block: -3.9%; FEN1 inhibitor: -1.5%

Results for CCOC(=O)C1=C(O)/C(=C\c2cc(C)n(-c3ccccc3F)c2C)N=C1C ?
TDP1 block: 6.2%; FEN1 inhibitor: -3.5%

What do the screens show for `Cc1ccccc1OCC(=O)Nc1nc(C)c(C(=O)N(C)C)s1`?
TDP1 block: 0.0%; FEN1 inhibitor: -2.4%

What do the screens show for `CCCCNC(=O)[C@H]1C[C@H]1[C@@H](O)[C@H](CO)NC(=O)[C@H](CC(C)C)NC(=O)OC(C)(C)C`?
FEN1 inhibitor: 1.1%

Results for Cc1cc(C(=O)OCC(=O)c2ccc(Br)s2)no1 ?
TDP1 block: -3.1%; FEN1 inhibitor: -17.6%

What do the screens show for `Cc1cc(NC(=O)c2ccc(Cl)cc2)n(CCOC(=O)c2ccc(Cl)cc2)n1`?
TDP1 block: 3.2%; FEN1 inhibitor: -6.5%

What do the screens show for `COc1ccc(-c2cn(-c3ccc(C)cc3C)c(=O)[nH]2)cc1OC`?
TDP1 block: 3.6%; FEN1 inhibitor: -0.6%

What do the screens show for `CC(C)CNC(=O)c1cccc(NC(=O)COc2cccc([N+](=O)[O-])c2)c1`?
TDP1 block: -2.4%; FEN1 inhibitor: 14.8%

What do the screens show for `CC1(C)OC(=O)N(Cc2ccco2)C1(C)O` (stereo not drawn)?
TDP1 block: 2.0%; FEN1 inhibitor: 7.4%

Results for COc1ccc(OC)c(CCNC(=O)c2ccc(CS(=O)(=O)c3ccc(Br)cc3)o2)c1 ?
TDP1 block: 8.1%; FEN1 inhibitor: 7.1%

Structures from the list above that contain a nitro group on carbon:
Results for O=[N+]([O-])c1ccccc1S(=O)(=O)NC1CC2CCC1C2 (stereo not drawn) ?
TDP1 block: 3.5%; FEN1 inhibitor: 6.1%

Results for CCOC(=O)N/N=C\c1ccc([N+](=O)[O-])o1 ?
TDP1 block: -2.0%; FEN1 inhibitor: 4.3%

What do the screens show for `CC(C)CNC(=O)c1cccc(NC(=O)COc2cccc([N+](=O)[O-])c2)c1`?
TDP1 block: -2.4%; FEN1 inhibitor: 14.8%

The listing continues:
What do the screens show for `CC(C)C[C@H](NC(=O)Nc1cccc(Br)c1)C(=O)O`?
TDP1 block: 2.4%; FEN1 inhibitor: -2.6%

What do the screens show for `Cc1nn2c(NCc3ccccn3)cc(C(C)(C)C)nc2c1-c1ccccc1`?
FEN1 inhibitor: -1.5%

What do the screens show for `COCCN(Cc1cc2cc(C)c(C)cc2nc1Cl)C(=O)N1CCOCC1`?
TDP1 block: 0.0%; FEN1 inhibitor: -8.5%

What do the screens show for `O=C(NCCCN1CCOCC1)C1CCC(=O)N1C1CCCCC1` (stereo not drawn)?
TDP1 block: 3.6%; FEN1 inhibitor: -7.5%

Results for Cc1ccccc1Cc1c(C)nc2ncnn2c1C ?
TDP1 block: -2.0%; FEN1 inhibitor: 0.4%

How did COc1ccc(S(=O)(=O)N2Cc3ccccc3CC2C(=O)Nc2nccs2)cc1 (stereo not drawn) do in these assays?
TDP1 block: 3.1%; FEN1 inhibitor: 0.6%

How did COCCNC(=S)N1CCN(c2cccc(C(F)(F)F)c2)CC1 do in these assays?
TDP1 block: 2.7%; FEN1 inhibitor: 5.7%

Results for COc1ccccc1CNC(=O)CN1C(=O)NC(C)(c2ccc(C)cc2)C1=O (stereo not drawn) ?
TDP1 block: -2.0%; FEN1 inhibitor: -3.9%

Results for CCOC(=O)c1cnn(-c2ccccc2)c1NC(=O)c1cccs1 ?
TDP1 block: -4.2%; FEN1 inhibitor: -1.3%

How did COc1ccc(CCNC(=O)C(=O)NCC2CCCN2S(=O)(=O)c2cc(C)ccc2C)cc1 (stereo not drawn) do in these assays?
TDP1 block: 3.3%; FEN1 inhibitor: -13.3%

Results for O=C(COC(=O)c1ccco1)NCC1CCCCC1 ?
TDP1 block: 5.0%; FEN1 inhibitor: 9.5%

Results for CC(C)c1ccccc1-n1c(SCC(=O)N2CCN(c3ccccc3)CC2)nnc1-c1cccnc1 ?
TDP1 block: -2.0%; FEN1 inhibitor: 6.2%

What do the screens show for `O=C1c2ccccc2NC(c2cccc([N+](=O)[O-])c2)N1O` (stereo not drawn)?
FEN1 inhibitor: -2.5%

Results for COc1ccc(CC(=O)N/N=C(\C)c2cccs2)cc1OC ?
TDP1 block: 1.0%; FEN1 inhibitor: -15.2%

How did COc1ccc(C(c2sc3nc(C)nn3c2O)N2CCc3ccccc3C2)cc1 (stereo not drawn) do in these assays?
TDP1 block: 8.2%; FEN1 inhibitor: 2.5%

Some of these compounds in order of formula weight, ascending:
Results for Cc1ccccc1Cc1c(C)nc2ncnn2c1C ?
TDP1 block: -2.0%; FEN1 inhibitor: 0.4%

What do the screens show for `O=C1c2ccccc2NC(c2cccc([N+](=O)[O-])c2)N1O` (stereo not drawn)?
FEN1 inhibitor: -2.5%

What do the screens show for `O=C(NCCCN1CCOCC1)C1CCC(=O)N1C1CCCCC1` (stereo not drawn)?
TDP1 block: 3.6%; FEN1 inhibitor: -7.5%

How did COc1ccc(S(=O)(=O)N2Cc3ccccc3CC2C(=O)Nc2nccs2)cc1 (stereo not drawn) do in these assays?
TDP1 block: 3.1%; FEN1 inhibitor: 0.6%

Results for CC(C)c1ccccc1-n1c(SCC(=O)N2CCN(c3ccccc3)CC2)nnc1-c1cccnc1 ?
TDP1 block: -2.0%; FEN1 inhibitor: 6.2%

Continued:
What do the screens show for `CCC1(CC)NC(=O)N(CC(=O)NCc2ccc3c(c2)OCO3)C1=O`?
TDP1 block: 1.0%; FEN1 inhibitor: 41.8%

What do the screens show for `CS(=O)(=O)N1CCc2cc(C(=O)OCC(=O)c3ccccc3)ccc21`?
TDP1 block: 0.7%; FEN1 inhibitor: 1.4%

What do the screens show for `CC1CC(C)CN(CCOCCSc2ccc(Cl)cc2)C1` (stereo not drawn)?
TDP1 block: -5.4%; FEN1 inhibitor: 8.5%

What do the screens show for `O=C(NCN1CCCCC1)c1cccnc1`?
TDP1 block: 1.1%; FEN1 inhibitor: -8.9%

How did CCOC(=O)c1c(OCCO)noc1N do in these assays?
TDP1 block: 0.0%; FEN1 inhibitor: -6.8%

What do the screens show for `O=C(CCN1CCN(C(c2ccccc2)c2ccccc2)CC1)N/N=C/c1ccc(O)cc1O`?
TDP1 block: 10.5%; FEN1 inhibitor: 0.9%

Results for Cc1ccc(C(=O)NC(C)c2nnc(SCC(=O)NC3CCCC3)n2C)cc1 (stereo not drawn) ?
TDP1 block: 0.8%; FEN1 inhibitor: 0.5%

What do the screens show for `COc1ccccc1C(=O)NCc1nnc(SCC(=O)Nc2nccs2)n1C`?
TDP1 block: 1.5%; FEN1 inhibitor: -0.1%

How did CCOC(=O)c1c(C)[nH]c(N=Nc2ccccc2)c1C do in these assays?
TDP1 block: 11.6%; FEN1 inhibitor: -23.8%

What do the screens show for `CCc1cc2cc(C)c(C)cc2nc1SCC(=O)NNC(=O)c1ccco1`?
TDP1 block: -3.2%; FEN1 inhibitor: -5.4%

What do the screens show for `CCC1(C)CC(c2nc(-c3ccc(OC)cc3)cs2)CCS1` (stereo not drawn)?
TDP1 block: -4.1%; FEN1 inhibitor: 0.7%

How did COc1ccc(C)cc1NC(=O)C1CCN(S(=O)(=O)c2ccc3c(c2)NC(=O)CO3)CC1 do in these assays?
TDP1 block: 3.6%; FEN1 inhibitor: -18.7%

What do the screens show for `CNC(=O)NC(=O)COC(=O)CCCSc1nc2ccccc2s1`?
TDP1 block: 3.2%; FEN1 inhibitor: 15.2%

This is a subset, and most or all hits are left out here.
